NPYLR7 ag – mosquito NPYLR7 agonism | HEK293T NPYLR7/Galpha15, GCaMP6s calcium fluorescence | activation, % at 10 µM | actives 0.15% (n = 270,000) | AID 1259423; in the data active = activation above about 40%;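 also: 0% = vehicle and 100% = reference agonist at the receptor; some compounds past the cut are filed as inactive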
NPYLR7 ag max-min – recorded beside NPYLR7 ag, whose call it bears; activation, %; measured here: Max-Min RFU normalised activation; some inactives read as strong as hits;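 span of the calcium signal over five minutes; 0% = vehicle and 100% = native peptide agonist; compound fluorescence can raise it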
An asterisk follows results filed as active; & = joins results of further samples.

The first 23 entries as a preview:
SMILES	NPYLR7 ag	NPYLR7 ag max-min
Cc1c(C(=O)NCc2ccc(C(F)(F)F)cc2)sc(=O)n1Cc1cccc(F)c1	-7	-8
Cc1cnn(-c2ccccc2)c1NC(=O)C1CC2CCC1O2 (configuration not stated)	-25&1	-24&0
CCC(CNC(=O)c1ccn(C)c(=O)c1)Oc1cccc(C)c1 (configuration not stated)	-4	-3
O=C1CCCc2occ(C(=O)N3CCc4[nH]nc(Cc5ccccc5)c4C3)c21	2	4
COc1cccc(-c2cc(-c3ccc(C(=O)NCCCN(C)c4ccccc4)cc3)[nH]n2)c1	-2	3
COc1ccc(CCc2nc(C)cc(CN(C)C)c2O)cc1OC	-7	-8
Cc1cccc(C2N(c3nccs3)C(=O)C3CCCN32)c1 (configuration not stated)	4	0
Cc1ccc(Cl)cc1Nc1nc(N)c(C#N)c(CC#N)c1C#N	0	-1
O=C(NCCc1cccs1)c1ccc(-c2cc(-c3ccccc3)n[nH]2)cc1	-1	0
O=C(c1ccc[nH]1)N1CCc2ccc(S(=O)(=O)N3CCCC3)cc21	6	3
O=C(CCN1CCC(C(O)c2cccs2)CC1)NCc1cccs1 (configuration not stated)	1	5
Cc1ccc(-n2c(C)cc3c2CCC(C=O)=C3Cl)cc1	3	1
CCN(CC)/C(=N/OC(=O)c1ccc(C)cc1)c1nonc1N	-13	-19
O=C(O)c1c(NC(=O)C2CCCCC2)sc2c1CCC2	-1	4
Cc1ccc(CNC(=O)CCc2nnc(C(C)C)o2)cc1F	2	-1
O=C(C=Cc1ccc(N2CCCC2=O)cc1)Nc1ccccc1	-6	-6
CCOc1ccccc1CNc1[nH]c(=O)n(C)c(=O)c1[N+](=O)[O-]	8	2
O=c1c2c(-c3ccc(Cl)cc3)csc2ncn1Cc1cc(=O)n2cc(Cl)ccc2n1	-1	-3
O=C(Cc1cc(-c2ccc(F)cc2F)on1)NCCC1=CCCCC1	4	4
COc1cccc(-n2nnc3c(=O)n(CC(=O)c4ccccc4)cnc32)c1	7	7
Cc1cc(F)ccc1CN(Cc1cccnc1)C1CCN(C)CC1	-1	5
Cc1csc2nc(CSc3n[nH]c(-c4ccc(Cl)cc4)n3)cc(=O)n12	1	1
Cc1ccc(CN2CCN(C3CCN(c4ccc5c(c4)OCO5)CC3)CC2CCO)o1 (configuration not stated)	3	1

Main list, from the start:
SMILES	NPYLR7 ag	NPYLR7 ag max-min
Cc1c(C(=O)NCc2ccc(C(F)(F)F)cc2)sc(=O)n1Cc1cccc(F)c1	-7	-8
Cc1cnn(-c2ccccc2)c1NC(=O)C1CC2CCC1O2 (configuration not stated)	-25&1	-24&0
CCC(CNC(=O)c1ccn(C)c(=O)c1)Oc1cccc(C)c1 (configuration not stated)	-4	-3
O=C1CCCc2occ(C(=O)N3CCc4[nH]nc(Cc5ccccc5)c4C3)c21	2	4
COc1cccc(-c2cc(-c3ccc(C(=O)NCCCN(C)c4ccccc4)cc3)[nH]n2)c1	-2	3
COc1ccc(CCc2nc(C)cc(CN(C)C)c2O)cc1OC	-7	-8
Cc1cccc(C2N(c3nccs3)C(=O)C3CCCN32)c1 (configuration not stated)	4	0
Cc1ccc(Cl)cc1Nc1nc(N)c(C#N)c(CC#N)c1C#N	0	-1
O=C(NCCc1cccs1)c1ccc(-c2cc(-c3ccccc3)n[nH]2)cc1	-1	0
O=C(c1ccc[nH]1)N1CCc2ccc(S(=O)(=O)N3CCCC3)cc21	6	3
O=C(CCN1CCC(C(O)c2cccs2)CC1)NCc1cccs1 (configuration not stated)	1	5
Cc1ccc(-n2c(C)cc3c2CCC(C=O)=C3Cl)cc1	3	1
CCN(CC)/C(=N/OC(=O)c1ccc(C)cc1)c1nonc1N	-13	-19
O=C(O)c1c(NC(=O)C2CCCCC2)sc2c1CCC2	-1	4
Cc1ccc(CNC(=O)CCc2nnc(C(C)C)o2)cc1F	2	-1
O=C(C=Cc1ccc(N2CCCC2=O)cc1)Nc1ccccc1	-6	-6
CCOc1ccccc1CNc1[nH]c(=O)n(C)c(=O)c1[N+](=O)[O-]	8	2
O=c1c2c(-c3ccc(Cl)cc3)csc2ncn1Cc1cc(=O)n2cc(Cl)ccc2n1	-1	-3
O=C(Cc1cc(-c2ccc(F)cc2F)on1)NCCC1=CCCCC1	4	4
COc1cccc(-n2nnc3c(=O)n(CC(=O)c4ccccc4)cnc32)c1	7	7
Cc1cc(F)ccc1CN(Cc1cccnc1)C1CCN(C)CC1	-1	5
Cc1csc2nc(CSc3n[nH]c(-c4ccc(Cl)cc4)n3)cc(=O)n12	1	1
Cc1ccc(CN2CCN(C3CCN(c4ccc5c(c4)OCO5)CC3)CC2CCO)o1 (configuration not stated)	3	1
O=C1Nc2cc(Cl)ccc2C1=Cc1cc(Br)ccc1F	4	7
Cc1ccc(F)c(-c2cnc(N)cn2)c1	-9	-7

(more compounds)
SMILES	NPYLR7 ag	NPYLR7 ag max-min
CC(NC(=O)c1cccnc1N1CCCCC1)c1ccc(C#N)cc1 (configuration not stated)	-4	-6
COc1ccc(CN(C)C(=O)CCn2[nH]c(=O)ccc2=O)cc1F	0	1
CCCNC(=O)C1(C)CCN(Cc2ccc(OC)c3ccccc23)C1 (configuration not stated)	1	-1
COc1ccc(NC(=S)NCCN(C)C)cn1	23	24
O=C(Nc1nc2c(s1)CCc1ccccc1-2)c1ccc(Br)cc1	-4	-8
COc1ccc(-c2ccc(CNC(C)=O)cn2)c(C)c1	6	4
COCC1CCN(c2nncc(-c3ccc(OC)c(F)c3)n2)C1 (configuration not stated)	-7	-9
CC1CCN(C(c2cccc(F)c2)C2Sc3ncnn3C2=O)CC1 (configuration not stated)	1	0
Cc1ccc(NC(=O)N2CC(=O)N3CCc4cc(F)ccc4C3C2)c(C)c1 (configuration not stated)	19	10
O=S(=O)(NCc1ccc(N2CCOCC2)nc1)c1cc(Cl)cc(Cl)c1	-2	7
CCOCCCN(CC(=O)N1CCc2sccc2C1c1ccc(Cl)cc1)C(=O)c1cc(OC)cc(OC)c1 (configuration not stated)	-9	0
CC1CCCCC1NC(N)=O (configuration not stated)	-7	-10
Cc1cc(C(=O)N2CCC2(C)C(=O)Nc2cccc3ccccc23)nn1C (configuration not stated)	-2	-4
COCc1nn2c(nnc3c(=O)n(CCc4c[nH]c5ccccc45)ccc32)c1-c1ccccc1	8	7
O=C1C=CC(=NC(=NS(=O)(=O)c2ccccc2)c2ccccc2)C=C1Cl	-2	-7
CCN1CCN(C2=C(c3c(-c4ccccc4)[nH]n(C)c3=O)C(=O)N(c3cc(C)ccc3OC)C2=O)CC1	19	16
COc1ccc(-n2c(SCC(=O)N3CCN(C(=O)c4cccc(Br)c4)C(C)C3)nnc2-c2ccc(C)cc2)cc1 (configuration not stated)	8	12
O=S(=O)(O)CCS	-7&7&-14	-15&-2&-20
CN(Cc1cc(-c2ccccc2)on1)C(=O)c1ccc(-n2cnnc2)cc1	-3	-6
COc1ncc(C(=O)N2CCC3(CC2)C(=O)Nc2ccccc23)cn1	8	5
CC(C(=O)N1CC(=O)Nc2ccccc21)N1CCN(CC(=O)N2CCCCCC2)CC1 (configuration not stated)	3	4
COc1ccccc1CN1CCCn2cccc2C1c1ccccc1F (configuration not stated)	5	16
Cc1ccc(OS(=O)(=O)c2cccc(C(F)(F)F)c2)c(-c2nc3cc(C)ccc3o2)c1	11	15
CC1(C)C2(Cl)C(Cl)C(Cl)C(Cl)(C(Cl)Cl)C1(Cl)C2Cl (configuration not stated)	-4	-7
COc1cc(OC)c(C(=O)Oc2cc(C)ccc2C(C)C)cc1OC	-7	-9

(cont.)
SMILES	NPYLR7 ag	NPYLR7 ag max-min
CN(C)c1nc2c(c(-c3ccccc3CO)n1)CCCC2	9	9
CCCCC(=O)N(Cc1ccco1)Cc1nc2cc(Cl)ccc2o1	0	-4
COc1cccc2cc(C(=O)NCC(c3ccco3)N3CCOCC3)oc12 (configuration not stated)	-1	-2
COc1cccc(-n2nc(C(=O)Nc3cccc(F)c3)c(=O)n(Cc3ccccc3Cl)c2=O)c1	16	19
COC(=O)C(c1ccccc1F)C1C=CC(NC(=O)c2ccco2)C1 (configuration not stated)	21	15
CC(=O)Nc1ccc(OC(C)C(=O)N(C)c2ccccc2)cc1 (configuration not stated)	1	-1
CN(Cc1cccc(-n2cccn2)c1)Cc1cnc[nH]1	-1	-6
Cc1ccc(CSCCOc2ccc(C#N)cc2)cc1	19	21
Cc1c(C(=O)NCc2cccs2)c(C(F)(F)F)nn1C1CCCN(C)C1 (configuration not stated)	11	3
O=C(CNC(=O)c1ccc(Br)o1)NNC(=O)C12CC3CC(CC(C3)C1)C2	-4	-8
CCOC(=O)CSc1nc2cc(S(=O)(=O)N(CC)CC)ccc2n1C(C)C	-10	-11
CCCCCn1cc(C2CCN(C(=O)c3ccccc3OCC)CC2)c2ccccc21	-2	-4
COc1ccc(C(CNC(=O)/C=C/c2c(Cl)nc3ccccn23)N(C)C)cc1 (configuration not stated)	3	8
COc1ccc(S(=O)(=O)N2CCC(C(NC(=O)c3ccccc3C)C(=O)N3CCCC3)CC2)cc1 (configuration not stated)	19	21
Cc1cc(C(=O)NC(C)c2ccc(C(F)(F)F)cc2)c2c(=O)[nH]n(C)c2n1 (configuration not stated)	-4	-8
C=CCC1(NCc2ccco2)CCN(C)CC1	-1	7
CCCC(CCC)C(=O)Nc1c(C)nc2ccc(C)cn2c1=O	3	1
CCCc1c(C(=O)N2CCCCC2)cnn1-c1cccc(F)c1	-4	-3
Cc1ccc2nc(SCC(=O)N(C)c3ccccc3)nc(=O)n2c1	4	3
CS(=O)(=O)N1CCC(Oc2ccccc2C(=O)NC2CCOC2)CC1 (configuration not stated)	7	7
COc1ccc(C2CC(=O)C3=C(C2)N=C(C)C(C#N)C3c2ccc(O)cc2)cc1 (configuration not stated)	-7	-10
Cc1oc2nc[nH]c(=O)c2c1C(=O)N1CCC(Cc2ccccc2)CC1	-16	-24
O=C(CSc1nnc2ccc(-c3ccccc3)nn12)N1CCN(c2ccccc2)CC1	-12	-4
CCN(CC)S(=O)(=O)c1ccc(C)c(N2C(=O)CC3(CCCCC3)CC2=O)c1	6	4
COc1ccc(OC(C)C(=O)N(CC(F)F)C2CC2)cc1 (configuration not stated)	6	6

More compounds:
SMILES	NPYLR7 ag	NPYLR7 ag max-min
Cc1cc(C)c2c(n1)nn1c(Nc3ccc(F)cc3)cc(C)nc21	1	19
CC1(Cc2ccc(C(=O)c3ccccc3)cc2)C(=O)Nc2cc(-c3ccc(F)cc3F)ccc21 (configuration not stated)	2	1
Cc1cc(C)n(-c2ccc(C(=O)N3c4ccccc4OCC3C)cn2)n1 (configuration not stated)	6	5
Cc1nc(NCCC(=O)Nc2nccs2)cc(C2CCNCC2)n1	5	2
Cc1nnc(SCC(=O)NC(C)CCN2CCOCC2)s1 (configuration not stated)	5	1
COc1cc(C(=O)N2CCCC2c2nonc2C)ccc1OC1CCN(C(C)=O)CC1 (configuration not stated)	0	-2
CCCc1cc(C(=O)NCCCN2CCCC2=O)n[nH]1	0	-4
O=C(CCc1nc(-c2ccccn2)no1)N1CCc2sccc2C1	2	2
COc1ccc(S(=O)(=O)N2CCOCC2)cc1N1CCN(C(=O)Cc2ccccc2)CC1	18	15
CCc1ccc2oc(-c3ccc(NC(=O)c4ccccc4[N+](=O)[O-])cc3)nc2c1	10	-2
COCCN(Cc1nccn1Cc1cc(C)ccc1C)C(=O)c1ccc(Cl)cc1	2	11
O=C(NCc1ccccc1F)N1CC[C@H](CO)[C@H](O)C1	3	-2
COc1ccc(C(=O)NC2CC(=O)N(CCc3ccc(F)cc3)C2)cc1 (configuration not stated)	0	-3
Cc1nc(CN2CCN(c3nc(C(C)(C)C)nc4c3cnn4C)CC2)no1	3	1
O=C(O)CCC12CC3CC(CC(C3)C1)C2	5	4
CCOc1ccccc1NC(=O)N1CC(=O)N2CCc3c(F)cccc3C2C1 (configuration not stated)	10	-6
C=CCn1c(SCc2ccc(C(=O)Nc3ccc(F)cc3)cc2)nnc1-c1ccc(C)cc1	19	30
O=C(NCCc1ccccn1)c1ccc(Nc2c(Oc3ccccc3)cnn(Cc3ccccc3)c2=O)cc1	8	8
CC1=CCC(c2nnco2)C(c2ccc(Cl)cc2)C1 (configuration not stated)	2	52
OC(Cc1nc2ccccc2[nH]1)c1nc2ccccc2[nH]1 (configuration not stated)	1	-3
COC(=O)C1(NC(=O)c2cnn(C(C)(C)C)c2)CCC(C)CC1 (configuration not stated)	3	0
C=CCNC(=O)c1ccccc1N1CCC(N)CC1	-2	8
Cc1nnc(NC(=O)C(C)Oc2cccc(C(C)(C)C)c2)s1 (configuration not stated)	1	1
O=C(Oc1ccc2c(c1)OCO2)c1cc(F)c(F)c(F)c1F	1	4
NC(=O)c1ccsc1NC(=O)CSc1nnc(-c2cccs2)o1	-1	15

The list continues.
SMILES	NPYLR7 ag	NPYLR7 ag max-min
COc1cc(C2=N/C(=C\c3ccc(N(C)C)cc3)C(=O)O2)cc(OC)c1OC	3	1
Cc1ccc(-n2c(SCCCCC(=O)N3CCN(C(=O)c4cccc(Br)c4)C(C)C3)nnc2-c2ccccc2)cc1 (configuration not stated)	-2	3
Cc1nn(C)cc1CN(C)CC1(O)CCCN(Cc2ccc(F)c(F)c2)C1=O (configuration not stated)	1	0
C=CCNC(=O)Cn1c(=O)c2c(OCC)c(CC)cnc2n(C)c1=O	-5	-6
COCCNC(=O)c1nn(-c2ccc(C)cc2)c(=O)n(Cc2cccc(OC)c2)c1=O	4	5
CC1CN2C(=O)CN(C(=O)Nc3cc(F)cc(C(F)(F)F)c3)CC2c2ccccc21 (configuration not stated)	4	11
CCn1c(SCc2cccc(F)c2)nc2c([nH]c3ccccc32)c1=O	2	1
O=C(Cc1cc2c(cc1Cl)OCCO2)N1CCCC(c2ccn[nH]2)C1 (configuration not stated)	7	3
O=C(O)c1cc(-c2cc(NCc3cccnc3)nc3[nH]ccc23)cs1	1	-3
Cc1ccc(CN2CCN(Cc3ccon3)CC2CCO)cc1 (configuration not stated)	4	1
O=C(O)c1cc(=O)c2c(Cl)cc(Cl)cc2[nH]1	-1&-9	-26&-13
Cc1nc(CC(C)C)sc1C(=O)N1CCC2C1C2C(F)(F)F (configuration not stated)	-15	-14

High-throughput results deposited in PubChem by Fisher Drug Discovery Resource Center.

These rows are one share of the data, so the mix of outcomes need not match the whole.
